Bead autofluor = counter-screen for toxin protease inhibitors: compound fluorescence | compound autofluorescence counterscreen, microsphere flow cytometry; stronger effect = higher value | fluorescence intensity (concentration not given with the values) | actives 3.1% (n = 360,000);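 active means at least 3 SD above the mean of all compounds, about 16000 in these data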;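 further: 100 nL of 1 mM stock went into each well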
Numbers without * were called inactive. Only part of the results is shown; the hit share may differ from the screen's.

canonical_smiles | Bead autofluor
Cc1cnc(C)c(Nc2nc(C(N)Cc3ccccc3)cs2)n1 (centres undefined) | 3903
COc1ccc(-c2nc3cc(C)c(Br)c(C)n3c2Cc2ccc(C)cc2)cc1OC | 5963
Cc1ccc(C(O)c2ncc(-c3cccc(F)c3)[nH]2)cc1 (centres undefined) | 2751
CCCCn1nnnc1C(CCc1ccccc1)N1CCC(n2c(=O)[nH]c3ccccc32)CC1 (centres undefined) | 6087
O=C(c1ccco1)N1CCN(C(=O)c2cnn(-c3ccc(F)cc3)c2-n2cccc2)CC1 | 2809
COc1ccc(-c2coc3c(C(=O)NCc4ccc(OC)c(OC)c4)cccc23)c(C)c1 | 3679
CCCCC[C@@H](C)N1C[C@@H](COCc2ccccc2)Oc2cc(N3CCC[C@H]3COC)ccc2S1(=O)=O | 6221
O=C(c1ccc(S(=O)(=O)Cc2cc(F)ccc2F)c([N+](=O)[O-])c1)N1CCOCC1 | 2965
O=C(c1ccco1)N1CC2(CC(c3ccc(Cl)cc3)=NO2)CN1Cc1ccc(Br)cc1 (centres undefined) | 3729
COc1ccc(CC(N)c2csc(NC(=O)NCCc3ccccc3)n2)cc1 (centres undefined) | 3078
CCOC(=O)[C@]12Cc3c(cc(OC)c(OC)c3OC)[C@H]1N(CCC(=O)OC)C(=O)c1ccccc12 | 5979
Cn1cnnc1SCC(=O)N1CCc2ccccc2C1 | 3276
COc1cc(CNc2ncnc3c2ncn3[C@H]2CN(CCc3ccccc3)C[C@@H](CO)O2)cc(OC)c1OC | 2917
O=C1NC[C@H](CCCCN2C[C@H](Cc3ccccc3)N(CCc3ccccc3)C(=O)C2=O)N(CC2CCCCC2)C1=O | 5669
COC(=O)C1C2CC3c4[nH]c5cc(OC)ccc5c4CCN3CC2CC(OC2CCCCO2)C1OC (centres undefined) | 3642
COc1ccc(C(O)c2nc(-c3cncnc3)cs2)cc1 (centres undefined) | 3698
COc1cccc(C(=O)NCCS(=O)(=O)N2CCN(c3ccccc3)CC2)c1OC | 2826
Cc1cc(NC(=O)c2ccc(OCC3CCCO3)cc2)ccc1Br (centres undefined) | 2923
Cn1cc(/C=C(\NC(=O)c2ccccc2)C(=O)NCCCn2ccnc2)c2ccccc21 | 3813
C[C@H](CO)N1C[C@H](C)[C@@H](CN(C)Cc2cccnc2)OCc2cnnn2CCCC1=O | 2968

Two of the compounds above, field by field.
COc1ccc(-c2nc3cc(C)c(Br)c(C)n3c2Cc2ccc(C)cc2)cc1OC
- Bead autofluor = 5963
Cc1ccc(C(O)c2ncc(-c3cccc(F)c3)[nH]2)cc1 (centres undefined)
- Bead autofluor = 2751

In the list so far, 3 contain bromine.
canonical_smiles | Bead autofluor
COc1ccc(-c2nc3cc(C)c(Br)c(C)n3c2Cc2ccc(C)cc2)cc1OC | 5963
O=C(c1ccco1)N1CC2(CC(c3ccc(Cl)cc3)=NO2)CN1Cc1ccc(Br)cc1 (centres undefined) | 3729
Cc1cc(NC(=O)c2ccc(OCC3CCCO3)cc2)ccc1Br (centres undefined) | 2923

(continued)
canonical_smiles | Bead autofluor
CC(C)(C)NC(=O)C1c2ccccc2OCC(=O)N1Cc1cccnc1 (centres undefined) | 5071
CC(C)CNC(=O)C1(C)CCN1C(=O)c1ccc(C(C)(C)C)cc1 (centres undefined) | 3922
O=C(Cn1nnc(-c2ccc(F)cc2)n1)NC(=O)NC1CCCCC1 | 3022
C[C@H](CO)N1C[C@H](C)[C@@H](CN(C)S(=O)(=O)c2ccccc2F)OCc2cnnn2CCCC1=O | 3050
CN(CC(=O)NCc1cccs1)CC(=O)Nc1ccccc1Cl | 4006
C[C@H]1CN([C@@H](C)CO)S(=O)(=O)c2ccc(C#CC3CC3)cc2O[C@@H]1CN(C)S(C)(=O)=O | 3487
CCc1nc2c(OCC(=O)c3ccc(Cl)cc3Cl)cccn2c1N(C)C(=O)c1cccs1 | 2730
Cc1cc(C)c(C#N)c(Sc2nc(C)c([N+](=O)[O-])c(C)c2C#N)n1 | 4777
CC1(C(=O)NS(=O)(=O)c2ccc(Cl)s2)CCN1C(=O)Cc1cc(F)ccc1F (centres undefined) | 4105
c1ccc2oc(-c3ccc4c(c3)CNCc3cnnn3-4)cc2c1 | 4384
CC(C)(C)c1ccc(CC(=O)N2CCC2(C)C(=O)Nc2ccc3[nH]ncc3c2)cc1 (centres undefined) | 3845
CCC(=O)N1CCC1(C)C(=O)Nc1ccc(OC)c(OC)c1 (centres undefined) | 3820
COc1ccccc1NC(=O)N(C)C[C@@H]1OCc2cn(nn2)CCCC(=O)N([C@@H](C)CO)C[C@H]1C | 3672
Nn1c(COc2ccccc2F)nnc1SCC(=O)NCC1CCCO1 (centres undefined) | 3674
O=C(NCc1ccccc1)c1cc(C2COCCN2C(=O)c2ccccc2)on1 (centres undefined) | 3856
O=C(CCN1CCN(c2ccccc2)CC1)NNC(=O)c1ccccc1 | 3992
CC(C)c1cc(Cn2c3ccccc3c(=O)n2C(C)CBr)on1 (centres undefined) | 5822
CS(=O)(=O)N(CCc1ccccc1)CC(=O)N1CCCCCC1 | 3504
CC(=O)Oc1ccccc1Cn1c(C)c(C(=O)NCc2ccc(F)cc2)sc1=O | 4988
COc1cccc(C(=O)c2ccccc2C(=O)O)c1 | 5288
CCS(=O)(=O)NC(=O)C1(C)CCN1C(=O)Cc1ccc(Cl)cc1Cl (centres undefined) | 4099
COCCCNC(=O)[C@@H](Cc1ccccc1)NC(=O)CC[C@H]1O[C@@H](n2ccc(=O)[nH]c2=O)[C@H](O)[C@@H]1O | 4297
COCCNC(=O)C1(C)CCCN(C(=O)c2ccc3c(c2)CCO3)C1 (centres undefined) | 2942
Nc1ccn(C2OC(CCl)C(O)C2O)c(=O)n1 (centres undefined) | 3581
COc1ccc(S(=O)(=O)N2C[C@H]3CON(C)[C@H]3C[C@H]2c2ccc(-c3cccc(F)c3)cc2)cc1 | 6037
O=C1c2ccccc2-n2nnnc2C2c3ccccc3-n3nncc3CN12 (centres undefined) | 5822
COC(=O)[C@@]1(Cc2ccc(F)cc2)[C@H]2c3cc(C(=O)N4CCCC4)n(Cc4ccc(C)c(F)c4F)c3C[C@H]2CN1C(=O)c1ccccc1 | 6079
O=C(CC1CCCC1)NCCS(=O)(=O)N1CCN(c2ccccc2)CC1 | 3125
COC(=O)c1ccc(C(=O)N2CCCCCC2(C)C(=O)NC(C)C)cc1 (centres undefined) | 4018
CC(=O)Nc1ccc(NC(=O)C2Cc3c(-c4ccco4)ccnc3O2)cc1 (centres undefined) | 2795
C=CCNC(=S)N1Cc2cc(Br)ccc2-n2nncc2C1 | 6319
COc1ccccc1CNc1nc(NCCOc2ccccc2Cl)c2sccc2n1 | 3826
CCCC(=O)N1CCC1(C)C(=O)Nc1cccc(OC(C)C)c1 (centres undefined) | 3716
O=C1Nc2cccc3c2N(CCC3)C2=C1CCC2 | 3643
O=C(COC(=O)c1cc(S(=O)(=O)N2CCOCC2)ccc1Cl)NC1CCCCC1 | 2984
COc1ccc2c(CN3CCCCCCC3)cc(=O)oc2c1 | 6649
COc1ccc(NC(=O)C2Cc3c(-c4ccncc4)ccnc3O2)cc1OC (centres undefined) | 3933
CCN(c1ccccc1)S(=O)(=O)c1ccc(OC)c(NC(=O)c2ccco2)c1 | 3823
CC1(C(=O)NS(=O)(=O)c2ccc3ccccc3c2)CCN1C(=O)Cc1ccc(Cl)cc1Cl (centres undefined) | 4171
OC[C@@H]1CN(Cc2ccc(F)cc2)C[C@H](n2cnc3c(N4CCCC4)ncnc32)O1 | 3401

New compounds follow.
structure | Bead autofluor
COc1ccc(OC(=O)N(C)C[C@@H]2OCc3cnnn3CCCC(=O)N([C@H](C)CO)C[C@@H]2C)cc1 | 3658
OC[C@@H]1CN(C2CCCC2)C[C@H](n2cnc3c(NC4CCC4)ncnc32)O1 | 2855
CC(C)(C)S(=O)N1Cc2cc(C(=O)NCCCN3CCOCC3)nc(-c3cccc(-c4cc5ccccc5o4)c3)c2[C@H]1CCO (some centres undefined) | 4620
CC(=O)Nc1cc(-c2ccc(F)cc2)cn2c(-c3ccc(F)cc3)cnc12 | 4234
CSc1ccccc1NC(=O)C1(C)CCN1C(=O)Cc1ccc(Cl)cc1Cl (centres undefined) | 3402
CC(C)N1CCC(C)(C(=O)Nc2cccc3c2CCCC3)C1 (centres undefined) | 6597
COc1ccc(-c2cc(C(=O)Nc3cc(OC)c(OC)c(OC)c3)[nH]n2)c(C)c1 | 2829
C[C@H]1CN([C@@H](C)CO)S(=O)(=O)c2ccc(Br)cc2O[C@H]1CN(C)Cc1ccccc1 | 4212
O=C(NCc1cccs1)C1Cc2c(-c3ccccc3Oc3ccccc3)ccnc2O1 (centres undefined) | 4001
CCN(CC)C(=O)C1=C(C)N(Cc2ccc(C(C)(C)C)cc2)C(=O)C(CC(=O)NCCN2CCOCC2)C1 (centres undefined) | 3942
COc1ccccc1-c1ccc2c(c1)C(C)(Cc1ccccc1C#N)C(=O)N2 (centres undefined) | 3144
COc1ccc(CNC(=O)C2(C)Cc3c(-c4cccc(C(N)=O)c4)ccnc3O2)cc1OC (centres undefined) | 4231
CC(=O)Nc1cnc(-c2cc(C)c(O)c(C)c2)cn1 | 3588
CC1=C(C(=O)N(C(C)C)C(C)C)CC(CC(=O)NCc2cccs2)C(=O)N1CCC1=CCCCC1 (centres undefined) | 6253
C[C@@H]1CN([C@H](C)CO)C(=O)CCCn2nncc2CO[C@@H]1CN(C)S(=O)(=O)c1cn(C)cn1 | 3506
Nc1ccn(C2OC(CO)C(O)C2F)c(=O)n1 (centres undefined) | 6049
COc1ccccc1-c1cnc(C(O)c2cc(Cl)cc(Cl)c2)[nH]1 (centres undefined) | 3995
Clc1ccccc1CNCc1ccc2c(c1)OCO2 | 2813
CC(=O)Oc1[nH]c(=O)c2cccc3c2c1CCC3 | 3856
COc1cccc(CSC(C(=O)O)c2ccccc2)c1 (centres undefined) | 3719
NC(CCc1ccccc1)c1csc(NC(=O)Nc2ccccc2Oc2ccccc2)n1 (centres undefined) | 3887
C[C@@H]1CC2=C(C(=O)OC(C)(C)O2)[C@H](c2ccc(Cl)cc2)O1 | 6618
Cc1ccc(NC(=O)CCCN2C(=O)C(c3ccccc3)Oc3cccnc32)c(C)c1 (centres undefined) | 3449
Cn1cccc1CN1CCC[C@]2(N[C@H](c3ccc(C(F)(F)F)cc3)[C@@H]3C(=O)N(Cc4ccccc4)C(=O)[C@@H]32)C1=O | 4032
CC(=O)c1ccccc1C(=O)N1CCC(CCC(=O)NCc2ccc(F)cc2)CC1 | 3483
COc1cc(C=NNc2ccccc2)ccc1OC(=O)c1ccccc1 | 4110
COCCNC(=O)C1CCCN(C(=O)c2cncc(Br)c2)CC1 (centres undefined) | 3813
COC(=O)C1(F)C(=O)NC(=O)NC1O (centres undefined) | 6559
CCOC(=O)c1cnc2cc(-c3ccc(C)cc3)nn2c1C | 3918
O=c1cc(CN(Cc2ccccc2)Cc2ccccc2)c2c(ccc3ccccc32)o1 | 4706
O=C(NCc1ccccc1)c1cc(C2COCCN2C(=O)c2cccs2)on1 (centres undefined) | 2790
Cn1c(-c2ccccc2)c(Sc2ccccc2)c2cc(-c3ccc4[nH]ccc4c3)ccc21 | 5087
CCN(CC)CCN=c1c(C)nc(C#N)c(N)n1O | 3754
C=C1C(=O)[C@]23C[C@H]1CCC2[C@@]1(C)C(C[C@@H]3O)[C@](C)(C(=O)OC)CC[C@@H]1OC(C)=O (some centres undefined) | 4397
COCC(=O)N1CCC(c2nc3ccccc3[nH]2)CC1 | 3750
CCC1OC(C)Cc2[nH][nH]c(=O)c21 (centres undefined) | 5305
CC(C)c1cc(C(=O)OCC(=O)NC2CC2)c(O)c(C(C)C)c1 | 2892
CSCCC(C)N1CCC(Oc2ccc(C(=O)NCc3ccccn3)cc2)CC1 (centres undefined) | 3632
O=C(c1ccccn1)N(Cc1ccco1)C1(C(=O)Nc2ccc(Br)cc2)CCCCC1 | 3757
COc1ccc(C=C(C(=O)c2ccccc2)c2ccccc2)cc1 | 6646
Cc1ccc(Cl)c(NC(=O)CN2C(=O)C(C)N(c3ccc(F)cc3)C2=O)c1Cl (centres undefined) | 2781
COc1ccc(-c2nc3c4ccccc4ccn3c2Cc2cccc(F)c2)cc1OC | 6649
O=C1NC[C@H](CCCCN2C[C@H](Cc3ccc(O)cc3)N(CCC3CCCCC3)C(=O)C2=O)N(CCc2ccc(O)cc2)C1=O | 5697
O=C(NCc1ccccn1)c1ccccc1OCc1ccccc1Cl | 3622
COCCNC(=O)c1cc(S(=O)(=O)N(C)C2CCCCC2)ccc1Cl | 3685
C[C@H]1CN([C@@H](C)CO)C(=O)CCCn2cc(nn2)CO[C@@H]1CN(C)S(=O)(=O)c1ccc(C#N)cc1 | 3540
CCCCN(C=O)c1c(CC)nc2ccc(C(=O)NCc3ccccc3OC)cn12 | 3731
COc1ccc(-c2cc(NC=O)c3ncc(-c4ccc(C(C)=O)cc4)n3c2)cn1 | 3419
CCCCN(C=O)c1c(CC)nc2ccc(C(=O)N(C)Cc3ccccc3)cn12 | 3544
NC(Cc1ccc(C(F)(F)F)cc1)c1csc(NC(=O)Nc2ccccc2Cl)n1 (centres undefined) | 4034
Cc1ccc(C(=O)CCC(=O)OCC(=O)Nc2cc(S(=O)(=O)N(C)C)ccc2C)cc1 | 2823
CCCCCc1c(-c2ccccc2F)ncn1CCc1ccccc1OC | 5223
O=C(Nc1nnc([C@H]2C[C@H](O)[C@@H](CO)O2)s1)Nc1cccc2c1CCCC2 | 3683
COc1ccc(N2C[C@H](CSC)[C@@H](CC(=O)Nc3ccc(Br)cc3)C2=O)cc1 | 3724
O=C(Nc1c(-c2ccc3c(c2)OCO3)[nH][nH]c1=O)c1ccccc1 | 5491

Seven compounds from above, ordered by count of non-hydrogen atoms, smallest number first.
structure | Bead autofluor
O=C(Nc1c(-c2ccc3c(c2)OCO3)[nH][nH]c1=O)c1ccccc1 | 5491
CCCCCc1c(-c2ccccc2F)ncn1CCc1ccccc1OC | 5223
COc1ccc(N2C[C@H](CSC)[C@@H](CC(=O)Nc3ccc(Br)cc3)C2=O)cc1 | 3724
COc1ccc(-c2cc(NC=O)c3ncc(-c4ccc(C(C)=O)cc4)n3c2)cn1 | 3419
CCCCN(C=O)c1c(CC)nc2ccc(C(=O)NCc3ccccc3OC)cn12 | 3731
Cc1ccc(C(=O)CCC(=O)OCC(=O)Nc2cc(S(=O)(=O)N(C)C)ccc2C)cc1 | 2823
C[C@H]1CN([C@@H](C)CO)C(=O)CCCn2cc(nn2)CO[C@@H]1CN(C)S(=O)(=O)c1ccc(C#N)cc1 | 3540

From PubChem BioAssay
